# Screening data: PubChem, National Center for Advancing Translational Sciences (NCATS)
# LT uptake inh = qHTS Assay for Anthrax Lethal Toxin Internalization. Cells, anthrax lethal toxin internalization, FRET ratio (460/530). Potency, µM (series often up to 40 µM), for inactives: at the top dose activity change, negative = inhibition, usual class: inhibitors. 0.67% of 70,000 active. AID 912, 2007; active = well fitted falling ratio curve with the 530 nm signal flat; inconclusive = other ratio curves, or a change in one channel alone; inactive = flat curves in the ratio and both channels; the % refers to the ratio; also: % is scaled to controls: 0 for no effect and ±100 for the full control effect; nearly all actives have a fitted effect of over 50% in size; tested in ME-180 cells; beta-lactamase reporter
# Prx2 Sm inh = Schistosoma Mansoni Peroxiredoxins (Prx2) | Schistosoma mansoni peroxiredoxin 2 (Prx2) | S. mansoni Prx2 activity coupled to TGR/GSH (TGR is thioredoxin glutathione reductase), NADPH fluorescence loss, qHTS; some inactives read as strong as hits | Potency, µM | 0.07% of 65,000 active; active means full or partial inhibition curve with a strong effect at the top dose; inconclusive means weaker partial or single-point curve; inactive means no accepted curve; also: series up to 57 µM; many of its hits are not listed in these tables
#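 Prx2 activity was followed as the loss of NADPH fluorescence (ex 365/em 450 nm), read every 30 sec for 8 min after H2O2 start. The enzyme mix (50 nM Prx2, 25 nM TGR, GSH, NADPH; pH 7.4 phosphate buffer) was incubated with compound for 15 min at room temperature first.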
# * marks the source's active call; other numbers are inactive results; ? = inconclusive; · = no result given; & = joins results of further samples; [ ] = remark or other dose. Potency is read from the fitted curve at half-maximal effect. Some of the compounds tested; the hit share may differ from the screen's.
# Results follow in this order: LT uptake inh	Prx2 Sm inh
- Cc1cc(NS(=O)(=O)c2ccc(Br)s2)no1
 : 20%	>57
- Cn1c(=O)c2c(nc(CN3CCN(c4ccccc4)CC3)n2Cc2c(F)cccc2Cl)n(C)c1=O
 : -2%	>57
- COc1cccc(C(=O)N2CCN(C3CCC(c4ccccc4)CC3)CC2)c1OC (configuration not stated)
 : 3%	>57
- O=C(OCCN1CCCCC1)c1cc2ccccc2o1
 : -9%	>57
- CCOCCCN(Cc1cc2cc(C)cc(C)c2[nH]c1=O)C(=O)N(CC)CC
 : -8%	>57
- Cc1cc(N2CCC(C)CC2)nc2ccc(N3C(=O)CCC3=O)cc12
 : 4%	>57
- COc1ccccc1CNC(=O)C1CCN(Cc2nc(-c3ccc(Cl)cc3)oc2C)CC1
 : -4%	>57
- CCOC(=O)N1CCN(c2c(NCCN(C)Cc3ccccc3)c(=O)c2=O)CC1
 : -7%	>57
- CN(C=O)CP(=O)(O)CN(C)C=O
 : 18%	>57
- Cc1cccc(OCC(=O)Nc2cc(C)c(C)cc2O)c1
 : -6%	>57
- CC(C)(C)n1nc2c(c1NC(=O)COc1ccc(Cl)cc1)CSC2
 : ?	>57
- Cn1c(CCCCCN)nc2ccccc21
 : ?	>57
- O=c1c(-c2cccc(Cl)c2)nc2cncnc2n1C1CC1
 : -1%	>57
- CCOC(=O)c1cc(NC(=O)Nc2ccc(OC)c(OC)c2)c(C)nc1C
 : 4%	>57
- CC(C)(C)n1ncc2c(=O)n(CC(=O)c3ccc(Cl)cc3)cnc21
 : -2%	>57
- CCOC(=O)c1ccc(S(=O)(=O)N2CCN(CC3CC=CCC3)CC2)cc1 (configuration not stated)
 : 5%	>57
- Cn1c2ccccc2c2c(C(=O)NCCCN3CCCC3=O)cn(C3CCCCC3)c(=O)c21
 : ?	>57
- O=C(CCn1nc(-c2ccc(Cl)cc2)ccc1=O)N1CCOCC1
 : ·	>57
- C=C1C(=O)O[C@H]2C[C@@]3(C)CCCC(=C)[C@@H]3C[C@H]12
 : ?	>57
- N#C/C=C1/NC(=O)c2ccccc2S1
 : -13%	>57
- COCCNC(=O)c1cc(-c2ccc(OC)c(OC)c2)on1
 : 3%	>57
- FC(F)(F)c1nc2nc(Cl)c(Cl)nc2n1CCCN1CCOCC1
 : -10%[8 µM]	>57
- Cc1cc(Cl)ccc1OCC(=O)Nc1ccccc1CO
 : ?	>57
- O=C(NCCc1c[nH]c2ccccc12)[C@@H]1C[C@H]1[C@@H](NP(=O)(c1ccccc1)c1ccccc1)c1ccccc1
 : ?	>57
- CCOC(=O)CNC(=O)CSc1ncnc2c1cnn2-c1ccc(C)cc1
 : -10%	>57
- COc1cc(C2NC(=O)NC(C)=C2C(=O)OC2CCCCC2)cc(Br)c1O (configuration not stated)
 : ?	·
- CCOC(=O)N1CCN(C(=O)CSc2nc3ccccc3c(=O)n2-c2ccccc2)CC1
 : 5%	·
- COc1cc(-c2ccc(N=Nc3ccc4c(S(=O)(=O)O)cc(S(=O)(=O)O)c(N)c4c3O)c(OC)c2)ccc1N=Nc1ccc2c(S(=O)(=O)O)cc(S(=O)(=O)O)c(N)c2c1O
 : ?	>57&>57
- O=c1c(CCc2ccccc2)nc2cnc(N3CCNCC3)nc2n1CCc1ccccc1
 : ?	>57
- N#Cc1c(NC(=O)CSc2nc(N)cc(=O)[nH]2)sc2c1CCCCCC2
 : 11%	>57
- CCNC(=O)N1C(CC(=O)OCC)C(=O)NC2CCCCC21 (configuration not stated)
 : ?	>57
- CCOC(=O)C1C(=O)OC2(CCOC(C)(C)C2)C1C(=O)OCC (configuration not stated)
 : 10%	·
- Cc1ccc(NC(=O)CN(C)S(=O)(=O)c2cccc3cccnc23)cc1
 : -20%	>57
- CCCN1CCC(NC(=O)Nc2ccc(F)cc2F)CC1
 : -6%	>57
- Cc1ccc(C2CC(C(F)(F)F)n3nc(C(=O)NCc4c(C)nn(C)c4C)c(Cl)c3N2)cc1 (configuration not stated)
 : ?	>57
- Cc1cc2nc(-c3ccc(SCC(=O)N4CCOCC4)nc3)[nH]c2cc1C
 : -9%	>57
- Clc1ccc2c(c1)N(CCCN1CCCC13CCCCC3)c1ccccc1S2
 : -2%[8 µM]	>57
- Oc1c(CN2CCOCC2)cc(-c2ccccc2)cc1CN1CCOCC1
 : 11%	>57
- Cc1ccc(S(=O)(=O)N2CCN(S(=O)(=O)c3ccc(C)cc3)C3OCCOC32)cc1 (configuration not stated)
 : -4%	·
- CC(C)(C)n1ncc2c(=O)n(CC(=O)N3CCCCCC3)cnc21
 : -9%	>57
- COc1cc(Cl)c(CC(=O)c2c[nH]c3ccccc23)cc1OC
 : -15%[8 µM]	>57
- O=C(CSc1nc2ccccc2o1)Nc1nc2ccccc2s1
 : -16%	>57
- CC1CCN(C(=O)CSc2nncn2-c2ccccn2)CC1
 : 10%	>57
- O=C(Oc1cccc(-n2cnnn2)c1)C1CCCCC1
 : 15%	>57
- CCOc1cc(C#N)c(NC(=O)c2ccco2)cc1OCC
 : -13%	>57
- Cc1ccc(C2C(C(=O)c3sc(-c4ccccc4)nc3C)=C(O)C(=O)N2CCN(C)C)o1 (configuration not stated)
 : ?	>57
- Cc1ccc(S(=O)(=O)N(C)Cc2cc3ccccc3[nH]c2=O)cc1
 : 2%	>57
- COC(=O)c1cc(NC(=O)CN2CCC(C(N)=O)(N3CCCCC3)CC2)cc(C(=O)OC)c1
 : 4%	>57
- CC1(C)Cc2c(sc3c2c(=N)n(Cc2ccco2)c(=O)n3Cc2ccc(F)cc2)CO1
 : 0%	>57
- CCOc1cc(S(=O)(=O)n2c(C)nc3ccccc32)ccc1F
 : ·	>57
- COc1cc(NCC[C@@H]2CCCCN2)c2ncccc2c1
 : 1%[8 µM]	>57
- Cc1ccc(SC(C)c2nc(-c3ccccc3)no2)cc1 (configuration not stated)
 : ·	>57
- CCOC(=O)c1[nH]cc(-c2ccccc2)c1N1CCOCC1
 : -18%	>57
- Cc1nc(NC(=O)CSc2nnc(C)n2CC2CCCO2)sc1C (configuration not stated)
 : 12%	>57
- O=C(c1cc(-c2cccs2)on1)N1CCCCC1
 : -4%	>57
- CCCCCn1c(CNC(=O)CCC)nc2ccccc21
 : -6%	>57
- O=S(=O)(Nc1ccc(O)cc1)c1cccc2cccnc12
 : 7%	>57
- O=C(c1ccco1)N1CCC2(CC1)CN(Cc1ccncc1)C2
 : ?	>57
- Nc1nnn(Cc2ccccc2)n1
 : 11%	>57
- O=C(c1cccnc1)N1CCN(CCCc2ccccc2)CC1
 : -10%	>57

# Additional results
# Results follow in this order: LT uptake inh	Prx2 Sm inh
- CCOc1ccc(NC(=O)N2CCC(NC(=O)c3ccco3)CC2)cc1
 : -2%	>57
- COc1cccc(NC(=O)C(C#N)Cc2ccncc2)c1 (configuration not stated)
 : -5%	>57
- CCC(C)(C)NC(=O)C(c1cccs1)N(CC1CCCO1)C(=O)Cn1nnc2ccccc21 (configuration not stated)
 : -1%	>57
- CCOC(=O)C1CCCN(C(=O)c2ccccc2SCCOC)C1 (configuration not stated)
 : ·	>57
- Oc1ccc2c3c1O[C@H]1c4oc5ccccc5c4C[C@]4(O)[C@H](C2)N(CC2CC2)CC[C@@]314
 : ?	>57&>57
- COc1ccc(S(=O)(=O)NCc2ccncc2)cc1OC
 : -25%	·
- O=C(c1ccco1)N1CCC[C@@]2(CCN(c3ccncc3)C2)C1
 : 2%	>57
- O=C(CSc1ccccc1)N1CCN(c2ccccc2)CC1
 : ·	>57
- COC(=O)Cn1cnc2c(nnn2-c2cccc(Cl)c2)c1=O
 : 19%	>57
- O=C(CSc1nnnn1C1CCCCC1)Nc1nc2c(s1)CCCC2
 : ?	·
- CCOC(=O)CSc1cn2c(n1)CCC2
 : 1%	>57
- COc1ccccc1C(=O)C1Nc2ccccc2-c2nnc(SC)nc2O1 (configuration not stated)
 : -6%	>57
- O=C(NCCCN1CCOCC1)C1CCC(=O)N1CCc1ccccc1 (configuration not stated)
 : 12%	>57
- O=C(NCc1ccccc1Br)c1ccco1
 : ·	>57
- CN1CCN(CC#CC2(O)CCCCC2)CC1
 : -8%	>57
- CCC(=O)Nc1nonc1-c1nc2ccccc2n1Cc1ccc(Cl)c(Cl)c1
 : 2%	>57
- COC(=O)c1cc(C(O)(C(=O)OC)C(F)(F)F)c(/N=C/N(C)C)s1 (configuration not stated)
 : 4%	·
- O=[N+]([O-])c1cc(N(CCO)CCO)ccc1NCCO
 : -8%	·
- O=C(Nc1ccc(CN2CCOCC2)cc1)c1cccs1
 : -1%	>57
- CCCCCn1c(=O)[nH]c2cc(C(=O)NCCCN3CCC(C)CC3)ccc2c1=O
 : -20%	>57

# The closing 2 entries of the section above open the next one.
# Results follow in this order: LT uptake inh	Prx2 Sm inh
- O=C(Nc1ccc(CN2CCOCC2)cc1)c1cccs1
 : -1%	>57
- CCCCCn1c(=O)[nH]c2cc(C(=O)NCCCN3CCC(C)CC3)ccc2c1=O
 : -20%	>57
- CCOc1ccc(NS(=O)(=O)c2cc(Cl)ccc2OC)cc1
 : ?	>57
- CCOC(=O)N1CCN(c2c(NCCCN(C)c3ccccc3)c(=O)c2=O)CC1
 : -1%	>57
- CC(Sc1nc(-c2ccccc2)cc(C(F)(F)F)n1)C(=O)N1CCCC1 (configuration not stated)
 : -2%	>57
- N=c1n(CCOc2ccccc2)c2ccccc2n1CCN1CCOCC1
 : ?	>57
- CC(=O)C1C(c2ccc3ncccc3c2)NC(=O)NC1(O)C(F)(F)F (configuration not stated)
 : 6%	>57
- CCOC(=O)C1=C(C)NC2(O)c3ccccc3C(=O)C12O (configuration not stated)
 : -6%	·
- COc1cccc(CNc2ccc3nc(-c4ccc(N)cc4)c(OC)n3n2)c1
 : -13%	>57
- CC(c1nnnn1C1CCCCC1)N(Cc1ccccc1)Cc1cccnc1 (configuration not stated)
 : -10%	>57
- COc1ccc(-c2cc(C(F)(F)F)n3nc(C(=O)N4CCOCC4)c(Cl)c3n2)cc1
 : -24%	·
- O=C(Nc1nc2c(s1)CCCC2=O)c1cnccn1
 : -1%	>57
- CCOc1ccc(CCNC(=O)CCc2nc(-c3ccc(C)cc3)no2)cc1OCC
 : 2%	>57
- COc1ccc(S(=O)(=O)CCC(=O)NC2CCCCC2)cc1
 : 3%	>57
- Cc1ccc(N(CC(=O)N2CCn3c2nc2ccccc23)S(=O)(=O)c2c(C)n[nH]c2C)cc1
 : -20%	·
- O=C(Cn1cnc2c(nnn2Cc2ccccc2F)c1=O)OCc1ccccc1
 : -10%	>57
- CCC(=O)c1ccc(CCCCCC(=O)O)s1
 : 4%	·
- CC(Oc1ccc(Cl)cc1Cl)C(=O)Nc1ccc(N2CCN(C)CC2)cc1 (configuration not stated)
 : ?	>57
- COCC(=O)N1CCC2(CC1)CN(C(=O)Nc1ccccc1)C2
 : -5%	>57
- O=C(COc1ccc(S(=O)(=O)Nc2ccccc2)cc1)N1CCOCC1
 : -3%	>57
- Cc1nn2c3c(cnc2c1-c1ccccc1)C(=O)CC(C)C3 (configuration not stated)
 : ·	>57
- O=C(NCc1ccco1)c1cc(-c2cccs2)on1
 : -5%	>57
- CCCOc1nc2c(c(=O)n(C)c(=O)n2C)n1CCC
 : -3%	>57
- Cc1cccc2c1nc(-c1ccccc1)n1nnnc21
 : -7%	>57
- CC1(C(=O)NCCN2CCOCC2)C=CCN1C(=O)c1ccccc1 (configuration not stated)
 : -8%	·
- Cc1nn(-c2ccc(C(=O)O)cc2)c(=O)c2ccccc12
 : 4%	>57
- CCCC(=O)Nc1ccc2c(c1)nc1n2CCOC1
 : 5%	>57
- CCOC(=O)Nc1nnc(CCc2ccccc2)s1
 : -14%	>57
- COc1ccc(C)cc1NC(=O)c1nnn(CCc2ccccc2)c1N
 : -5%	>57
- O=C(CSc1nnc(C2COc3ccccc3O2)o1)NC1CCCCC1 (configuration not stated)
 : -8%	>57
- CS(=O)(=O)N1CCC2(CCCN(c3cccc(-c4ccccc4)c3)C2)CC1
 : ?	>57
- Cc1cccc(-n2nnnc2SCC(=O)NCCN2C(=O)CSC2=O)c1
 : ·	>57
- O=C(CN1C(=O)CCS(=O)(=O)c2ccccc21)Nc1ccc2c(c1)OCCO2
 : -1%	>57
- NS(=O)(=O)c1ccc(CCNc2ncnc3sccc23)cc1
 : 10%	>57
- CC1CCCC(C)N1c1nnc(NC(=O)Cn2c(=O)oc3ccccc32)s1 (configuration not stated)
 : ?	>57
- CCc1nc(OCCN(CC)CC)c2oc3ccccc3c2n1
 : 18%	·
- O=C(CNC(=O)c1cccs1)OCC(=O)c1cccs1
 : 1%	>57
- CCCc1cc(=O)[nH]c(SCC(=O)N(Cc2ccccc2)C(C)C)n1
 : 4%	>57
- CCCCCCc1c(O)nc(SCC(=O)O)[nH]c1=O
 : 5%	>57
- CCNc1nc(OC)nc(SCC(N)=O)n1
 : 0%	>57
- CCCc1cc2c(=O)c(-c3ccccn3)c(C)oc2cc1O
 : 4%	>57
- CCOC(=O)c1cnc2scnn2c1=O
 : -7%	>57
- Cn1c(=O)c2nc(-c3ccccc3)oc2c2ccccc21
 : -9%	>57
- O=c1cc(N2CCN(c3ccc(F)cc3)CC2)[nH]c(=O)n1C1CCCCC1
 : ?	>57
- CCOC(=O)Cc1cc(=O)n(-c2nc3ccccc3s2)[nH]1
 : -3%	>57
- COc1ccccc1-c1nc(NC2CC2)c2ccccc2n1
 : 17%	>57
- C=CCn1c(-c2ccco2)n[nH]c1=S
 : -7%	·
- CCNc1ncc2nc(-c3ccc(Cl)cc3)c(=O)n(C[C@H]3CCCO3)c2n1
 : ?	>57
